RE007 growth inh = less growth of the S. pombe RE007 Vpr strain; Potency, µM (series often up to 92.2 µM), for the others: at the top dose activity change, negative = less growth; S. pombe RE007 Vpr strain, BacTiter-Glo ATP luminescence, 24 h; control for the full effect not named in the record; 360,000 tested, 0.21% active; AID 651644; active = well fitted falling curve with a large enough effect; inconclusive = small, poorly fitted or top-dose-only effect; inactive = no such curve, though single readings can be large or run the other way;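 further: on the % scale 0 is the no-effect control and ±100 the full control effect; nearly all actives have a fitted effect of over 50% in size; the assay follows cell death caused by Vpr and the record does not say whether a fall means rescue or toxicity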
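Fission yeast RE007 carrying one integrated HIV-1 vpr copy, seeded at OD 0.01 in PMG+AL medium with 23 nL pinned compound. Grown 24 h at 30 degrees; viability read by BacTiter-Glo luminescence after 5 min.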
Cruzain inh Det = blocks cruzain activity in presence of Triton detergent; P25779; purified cruzain, Z-FR-AMC fluorescence, 0.01% Triton; Potency, µM, for inactives: max response, negative = inhibition, hits mostly inhibitors; 200,000 tested, 0.43% active; AID 1478;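 further: plate controls were neutral wells for no effect and buffer without enzyme for full effect; nearly all actives have a fitted effect of over 40% in size; top concentration of the series not given in the record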
Target sequence (P25779 123-467 limits assumed): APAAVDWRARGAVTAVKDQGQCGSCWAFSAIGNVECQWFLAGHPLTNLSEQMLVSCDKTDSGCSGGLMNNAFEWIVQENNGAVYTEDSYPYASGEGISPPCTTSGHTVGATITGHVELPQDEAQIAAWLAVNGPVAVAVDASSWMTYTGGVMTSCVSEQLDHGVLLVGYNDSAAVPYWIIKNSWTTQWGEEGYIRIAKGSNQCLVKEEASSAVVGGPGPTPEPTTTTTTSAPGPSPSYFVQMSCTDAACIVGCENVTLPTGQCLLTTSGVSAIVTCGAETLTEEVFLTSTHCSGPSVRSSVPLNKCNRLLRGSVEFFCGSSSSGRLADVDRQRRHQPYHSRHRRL
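Steps: dispense cruzain (1.5 nM final) in acetate buffer pH 5.5 with DTT and 0.01% Triton X-100; pin-transfer compounds; incubate 15 min RT; add Z-FR-AMC (2 uM final); read fluorescence every 30 s, using the 60 s intensity change.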
SARS PLpro yeast = SARS-CoV PLP inhibition in yeast. S. cerevisiae expressing SARS-CoV PLpro, growth rescue; control for the full effect not named in the record. Potency, µM (highest dose often 32.9 µM), inactives show at the highest dose activity, positive = growth rescue. 330,000 tested, 0.19% active; active means well fitted rising curve with a large enough effect; inconclusive means small, poorly fitted or top-dose-only effect; inactive means no such curve, though single readings can be large or run the other way; further: 0% is about no effect; nearly all actives have a fitted effect of over 55% in size; growth read by luminescence after 48 h
StopGo reporter = FMDV 2A StopGo reporter, luciferase signal | 410,000 tested, 1.2% active | Potency, µM (doses to about 57.9 µM), inactives show at the highest dose signal change, negative = less light | human cells with a luciferase reporter of 2A StopGo recoding; control for the full effect not named in the record; active = well fitted falling curve with a large enough effect; inconclusive = small, poorly fitted or top-dose-only effect; inactive = no such curve, though single readings can be large or run the other way; tested in HEK293T cells; further: on the % scale 0 is the no-effect control and ±100 the full control effect; nearly all actives have a fitted effect of over 45% in size; luciferase light after 4 h
MARV entry inh = inhibitors of Marburg virus binding or cell entry; Marburg virus pseudotyped entry inhibition, cell reporter; control for the full effect not named in the record; about a third of the inactives were read at about 46 µM; Potency, µM (titrated, usually from 37.8 µM), for inactives: at the highest dose activity change, negative = inhibition, most hits filed as inhibitors; 300,000 tested, 1.8% active; active = well fitted inhibition curve with a large enough effect; inconclusive = small, poorly fitted or top-dose-only effect, or effect the other way; inactive = flat fitted curve, though single readings scatter; tested in HEK293 cells; about a fifth of its hits are not listed in these tables; further: on the % scale 0 is the no-effect control and ±100 the full control effect; luciferase read-out
Cruzain inh noDet = inhibitors of Trypanosoma cruzi cruzain without detergent. P25779. purified cruzain, Z-FR-AMC fluorescence, no detergent. Potency, µM, for the others: max response, negative = inhibition, actives largely listed as inhibitors. 200,000 tested, 2.3% active. AID 1476;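 further: plate controls were enzyme without inhibitor for no effect and buffer without enzyme for full effect; nearly all actives have a fitted effect of over 40% in size; top concentration of the series not given in the record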
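Purified cruzain at 1.5 nM, pre-incubated 15 min with compound at room temperature in 100 mM sodium acetate pH 5.5, 5 mM DTT, 0.00005% Triton X-100. Reaction started with 2 uM Z-FR-AMC; AMC fluorescence increase over 60 s gives rate.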
Lassa entry inh = blocks Lassa virus binding to or entry into cells; Lassa virus pseudotype entry inhibition, cell reporter; control for the full effect not named in the record; AID 540256; 300,000 tested, 1.2% active; Potency, µM (highest dose often 37.9 µM), for inactives: at the highest dose activity change, negative = inhibition, usual class: inhibitors; active means well fitted inhibition curve with a large enough effect; inconclusive means small, poorly fitted or top-dose-only effect, or effect the other way; inactive means flat fitted curve, though single readings scatter; tested in HEK293 cells; further: on the % scale 0 is the no-effect control and ±100 the full control effect; nearly all actives have a fitted effect of over 50% in size; luciferase read-out
NS1 inh = influenza NS1 inhibition | 270,000 tested, 0.4% active | S. cerevisiae slowed by influenza A NS1, growth recovery by OD600 | AID 2326 | Potency, µM (doses to about 46.1 µM), inactives show top-dose activity, positive = more growth; active means well fitted rising curve with a large enough effect; inconclusive means small, poorly fitted or top-dose-only effect; inactive means no such curve, though single readings can be large or run the other way; further: nearly all actives have a fitted effect of over 50% in size
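OD600 was taken as the measure of yeast growth restored by compound in an NS1-expressing S. cerevisiae strain. Cells had been washed out of glucose medium and diluted 1:100 into galactose -URA medium, pH 6.0.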
Numbers without * were called inactive; & = joins results of further samples; [ ] = another dose, or the depositor's remark. Unless noted, the call rests on the fitted dose curve; in most records, active means well fitted curve in the direction sought with a large enough effect; inconclusive means small, poorly fitted or top-dose-only effect, or another doubt; inactive means no such curve, though single readings can be large; an effect the other way counts as inactive or inconclusive. Potency means the concentration at half of the fitted maximal effect.

Screening CC(/C=C/c1ccccc1)=N\NC(=O)C1CC1(C)c1ccccc1 (stereo unspecified) returned RE007 growth inh 3.5%, Cruzain inh Det -11.8%, SARS PLpro yeast -54.8%, StopGo reporter inconclusive, MARV entry inh inconclusive, Cruzain inh noDet -15.7%, Lassa entry inh 1.03µM* and NS1 inh -22.5%.
COc1ccc(C(=O)Nc2ccccc2C(=O)NC(Cc2ccc(O)cc2)C(=O)NNC(=O)c2ccncc2)cc1 (stereo unspecified) was read as RE007 growth inh -18.8%, SARS PLpro yeast 0.7%, StopGo reporter 8.7%, MARV entry inh -3.1%[46.1 µM] and Lassa entry inh -0.1%.
Screening CCOC(=O)c1c(-c2ccc(OC)cc2)oc2ccc(OCc3ccc(F)cc3F)cc12 returned Cruzain inh Det -0.3%, StopGo reporter -3.4%, MARV entry inh -7.7%[46.1 µM], Cruzain inh noDet -8.3% and Lassa entry inh 16.2%[46.1 µM].
For O=c1[nH]c(=S)[nH]cc1S(=O)(=O)c1cccc(Cl)c1 the results were RE007 growth inh 3.4%, SARS PLpro yeast 3.8%, StopGo reporter -16.7%, MARV entry inh 4.3%[46.1 µM], Lassa entry inh 4.8%[46.1 µM] and NS1 inh 5.2%.
COc1cccc(-c2nnc(N(C)C(=O)c3ccno3)s2)c1 was read as Cruzain inh Det 2.7%, SARS PLpro yeast -2.9%, MARV entry inh 1.8%, Cruzain inh noDet 4.8% and NS1 inh -57.0%.
Screening CC(=O)NC(c1ccccc1)c1cc(Cl)c2cccnc2c1O (stereo unspecified) returned RE007 growth inh -2.1%, SARS PLpro yeast inconclusive, StopGo reporter -15.6%, MARV entry inh 12.6µM*, Lassa entry inh inconclusive and NS1 inh -125.3%.
`Cn1c(CNC(=O)c2ccccc2F)nnc1SCC(=O)N1CCN(c2ccccc2)CC1` gave RE007 growth inh -14.5%, SARS PLpro yeast 1.0%, StopGo reporter -10.9%, MARV entry inh 0.9%[46.1 µM], Lassa entry inh -20.8%[46.1 µM] and NS1 inh -1.0%.
Screening CC1=NN(c2ccccc2)C(=O)/C1=C\c1cc(C)n(-c2ccccc2)c1C returned RE007 growth inh -5.8%, Cruzain inh Det -8.8%, SARS PLpro yeast 6.3%, StopGo reporter 16.2%, MARV entry inh 19.0%, Cruzain inh noDet inconclusive, Lassa entry inh 3.7% and NS1 inh -4.6%.
For CS(=O)(=O)N(CC(O)Cn1c2ccccc2c2ccccc21)c1ccccc1 (stereo unspecified) the results were RE007 growth inh -4.4%, Cruzain inh Det -6.3%, SARS PLpro yeast 2.8%, StopGo reporter inconclusive, MARV entry inh inconclusive, Cruzain inh noDet inconclusive, Lassa entry inh -12.9% and NS1 inh -43.2%.
For Cc1cccc2c1N(CCOc1ccccc1Cl)C(=O)C2=O the results were RE007 growth inh 13.8%, Cruzain inh Det -5.0%, SARS PLpro yeast -1.4%, StopGo reporter 2.3%, MARV entry inh -12.8%, Cruzain inh noDet inconclusive, Lassa entry inh -1.1% and NS1 inh -34.2%.
Screening COc1cc(-c2nnn(Cc3ccccc3C)n2)cc(OC)c1OC returned RE007 growth inh -1.7%, SARS PLpro yeast 0.0%, StopGo reporter 31.6%[activator] and NS1 inh -10.1%.
COc1ccc(OCC(O)CON2C(=O)c3ccccc3C2=O)cc1 (stereo unspecified) was read as RE007 growth inh 18.2%, Cruzain inh Det 1.1%, SARS PLpro yeast -0.1%, StopGo reporter -0.2%, MARV entry inh 2.8%[46.1 µM], Cruzain inh noDet 2.8%, Lassa entry inh -8.3% and NS1 inh inconclusive.
`CCOC(=O)C1=CNS(=O)(=O)NC1c1ccc(C)cc1` (stereo unspecified) gave RE007 growth inh 3.7%, SARS PLpro yeast -2.6%, StopGo reporter -22.3% and MARV entry inh -5.6%.
For CC1CCCCN1C(=O)CSc1nc(-c2ccccc2)cn1N (stereo unspecified) the results were RE007 growth inh 3.6%, SARS PLpro yeast -5.1%, StopGo reporter 34.2%[activator], MARV entry inh -7.1% and Lassa entry inh inconclusive.
For O=S(=O)(c1ccc(F)cc1)N1CCC(n2c(C(F)(F)F)nc3cccnc32)CC1 the results were Cruzain inh Det -1.6%, StopGo reporter 4.0%, Cruzain inh noDet -10.5% and Lassa entry inh 3.2%[46.1 µM].
For O=CN1CCN(C(C(=O)NC2CCCC2)c2ccc(Cl)cc2)CC1 (stereo unspecified) the results were RE007 growth inh 8.4%, Cruzain inh Det 1.4%, SARS PLpro yeast 2.3%, StopGo reporter 34.5%[activator], MARV entry inh inconclusive, Cruzain inh noDet 0.6%, Lassa entry inh 8.3% and NS1 inh -1.9%.
Cc1sc(NC(=O)CN(C)C2CCCCC2)nc1-c1ccc2c(c1)CCN2S(=O)(=O)c1ccccc1 was read as Cruzain inh Det -4.7%, SARS PLpro yeast -9.4%, MARV entry inh -0.2%, Cruzain inh noDet 31.6µM* and NS1 inh 23.7%.
CCOC(=O)c1ccc(NC(=O)c2cc3sccc3n2Cc2ccc(Cl)cc2)cc1 was read as Cruzain inh Det 1.8%, StopGo reporter -23.8%, MARV entry inh inconclusive, Cruzain inh noDet 10µM* and Lassa entry inh 0.4%[46.1 µM].
Screening COc1ccc2cc(/C(C)=N/NC(=O)c3cc(-c4cccnc4)nc4ccccc34)ccc2c1 returned RE007 growth inh -8.5%, Cruzain inh Det -2.0%, SARS PLpro yeast -1.5%, StopGo reporter -15.2%, MARV entry inh inconclusive, Cruzain inh noDet -23.0%, Lassa entry inh 2.3% and NS1 inh 21.6%.
For COc1ccccc1CNC(=S)NC1CCCCC1 the results were RE007 growth inh 11.3%, SARS PLpro yeast -1.9%, StopGo reporter -5.2%, MARV entry inh inconclusive and Lassa entry inh 8.91µM*.
`COc1ccc(Cl)cc1NC(=O)C[n+]1ccccc1` gave RE007 growth inh 0.7%, SARS PLpro yeast -0.5%, StopGo reporter -9.7%, MARV entry inh inconclusive, Lassa entry inh 19.8% and NS1 inh 2.7%.
Screening Cc1ccc(S(=O)(=O)N2CCOCC2)cc1N/N=C(\C#N)c1nc2ccccc2[nH]1 returned RE007 growth inh -4.1%, Cruzain inh Det -4.9%, SARS PLpro yeast -0.2%, StopGo reporter 1.7%, MARV entry inh 1.1%, Cruzain inh noDet -24.6% and NS1 inh inconclusive.
CCOC(=O)C1(Cc2ccccc2C(F)(F)F)CCN(C(=O)c2cc(C)n(C)n2)CC1 was read as RE007 growth inh 0.5%, SARS PLpro yeast 1.2%, StopGo reporter 31.9%[activator], MARV entry inh -18.9%[46.1 µM], Lassa entry inh 4.1% and NS1 inh 1.9%.
Cc1cccc(N2CCN(C(=O)c3cnc(N4CCCC4)nc3C)CC2)c1C was read as Cruzain inh Det -4.5%, StopGo reporter -25.6%, Cruzain inh noDet inconclusive and Lassa entry inh inconclusive.
Screening Nc1ccc(Oc2ncccn2)cc1 returned RE007 growth inh -11.3%, SARS PLpro yeast 0.4%, StopGo reporter 3.8% and NS1 inh 7.4%.
Cc1occc1C(=O)N/N=C/C=C/c1ccccc1[N+](=O)[O-] was read as RE007 growth inh -13.3%, SARS PLpro yeast -0.6%, StopGo reporter 28.3%, MARV entry inh 10.8%[46.1 µM] and Lassa entry inh 25.5%.
Screening Cc1ccc(NC(=O)CCCn2nc(C)c3c(C)n(-c4ccccc4)nc3c2=O)cc1C returned RE007 growth inh -1.0%, SARS PLpro yeast -1.2%, StopGo reporter -24.5% and NS1 inh 3.7%.
For CC(C)CCn1c(COc2ccccc2)n[nH]c1=S the results were RE007 growth inh -4.5%, SARS PLpro yeast 2.0%, StopGo reporter 1.0%, MARV entry inh 0.9%[46.1 µM], Lassa entry inh 5.6%[46.1 µM] and NS1 inh 9.6%.
For COc1ccc(S(=O)(=O)N2CCOCC2)cc1NC(=O)COC(=O)c1[nH]c(C)c(C(C)=O)c1C the results were RE007 growth inh 4.1%, SARS PLpro yeast -5.5%, StopGo reporter -6.3%, MARV entry inh -13.2%[46.1 µM] and Lassa entry inh -3.6%[46.1 µM].
For COc1ccc(C(=O)N/N=C(\C)c2cccc(NC(=O)c3ccc(F)cc3)c2)c(OC)c1 the results were RE007 growth inh 0.5%, SARS PLpro yeast 1.9%, StopGo reporter 22.8%, MARV entry inh -10.7%, Lassa entry inh 4.7% and NS1 inh 2.7%.
CC1=CC(C)(C)N2C(=O)C3(C(C#N)=C(N)OC4=C3C(=O)CCC4)c3c(C)c(C)cc1c32 (stereo unspecified) was read as RE007 growth inh -13.5%, Cruzain inh Det 1.1%, SARS PLpro yeast -0.6%, StopGo reporter -2.8%, MARV entry inh -9.0%, Cruzain inh noDet 19.1%, Lassa entry inh -4.1% and NS1 inh -3.2%.
CCC(Sc1nc2n[nH]c(C)c2c(=N)n1-c1cccc(Cl)c1C)C(=O)N(CC)CC (stereo unspecified) was read as RE007 growth inh -8.7%, Cruzain inh Det 4.0%, SARS PLpro yeast 8.4%, StopGo reporter -31.5%, MARV entry inh -3.2%&4.5%, Cruzain inh noDet inconclusive, Lassa entry inh inconclusive and NS1 inh -22.3%.
CCOc1ccccc1NC(=O)C1CCN(S(=O)(=O)c2c(C)noc2/C=C/c2ccco2)CC1 was read as Cruzain inh Det -20.7%, StopGo reporter -16.2%, MARV entry inh 2.8%[46.1 µM], Cruzain inh noDet 1.5% and Lassa entry inh inconclusive.
`CCCCNC(=O)CC1N=C2c3ccccc3N=C(SCC(=O)Nc3cccc(OC)c3)N2C1=O` (stereo unspecified) gave RE007 growth inh 4.1%, Cruzain inh Det -3.2%, SARS PLpro yeast 1.2%, StopGo reporter 6.3%, MARV entry inh inconclusive, Cruzain inh noDet 7.3%, Lassa entry inh 0.4% and NS1 inh -49.3%.
Screening CCC(CC)C(=O)OCC(=O)NC12CC3CC(CC(C3)C1)C2 returned RE007 growth inh 8.2%, Cruzain inh Det 2.1%, SARS PLpro yeast 0.1%, StopGo reporter 9.5%, MARV entry inh -19.0%&-19.0%, Cruzain inh noDet -9.3%, Lassa entry inh -23.2% and NS1 inh -6.5%.
For S=c1nc[nH]c2c1ncn2C1CCCC1 the results were RE007 growth inh 3.3%, SARS PLpro yeast 1.8%, StopGo reporter -0.8% and NS1 inh -0.3%.
